Source: PubChem BioAssay
ClpP mod: qHTS Assay for Activators of ClpP; ATP-dependent Clp protease proteolytic subunit (Bacillus subtilis (strain 168)), P80244; purified B. subtilis ClpP, FRET peptide cleavage, 20 min; Potency, µM (series often up to 57.5 µM), inactives show at the top dose activity change, negative = active; actives 1.9% (n = 340,000); AID 651965, 2013; active = well fitted falling curve with a large enough effect; inconclusive = small, poorly fitted or top-dose-only effect; inactive = no such curve, though single readings can be large or run the other way; also: the source files actives as falling curves though it sought activators and does not explain the sign; nearly all actives have a fitted effect of over 65% in size; many hits overshoot -100%
Target sequence (P80244 whole entry, looked up): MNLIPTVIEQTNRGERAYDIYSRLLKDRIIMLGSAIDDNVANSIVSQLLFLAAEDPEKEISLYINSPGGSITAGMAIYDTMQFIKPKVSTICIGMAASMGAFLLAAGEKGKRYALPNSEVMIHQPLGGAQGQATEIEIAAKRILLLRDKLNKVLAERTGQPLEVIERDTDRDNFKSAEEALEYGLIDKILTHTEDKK
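Purified B. subtilis ClpP, 10 microg/mL final in Tris/HCl pH8 with KCl, BSA, glycerol and Tween-20, cleaved an Abz/nitrotyrosine-quenched decapeptide. Fluorescence (ex 320, em 430) was read at 0 and 20 min at room temperature. Delta was normalized to 5.8 microM ADEP and DMSO/no-enzyme controls.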
PINK1 expr mod: PINK1 expression modulation. PINK1 immunofluorescence, high-content cytometry, 24 h. Potency, µM (top dose mostly 76.6 µM), without a hit: top-dose activation (PINK1 increase), most hits filed as activators. actives 0.2% (n = 410,000). AID 624263; active = well fitted activation curve with a large enough effect; inconclusive = small, poorly fitted or top-dose-only effect; inactive = flat fitted curve, though single readings scatter; cell line not stated here;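 also: % of control where 0% means no effect; nearly all actives have a fitted effect of over 65% in size; a mitochondrial uncoupler was the plate control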
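PINK1 protein, normally rapidly degraded, was detected by immunofluorescence after 24 hour compound treatment of a stable cell line. Titration data (5 concentrations) came from laser-scanning cytometry, with CCCP-treated wells as controls.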
An asterisk follows results filed as active; u = inconclusive. Potency is read from the fitted curve at half-maximal effect. Not all compounds are listed (hit frequency here may not be typical).

structure | ClpP mod | PINK1 expr mod
CCCCCCCCN1C(=O)[C@H](CC(=O)NCc2cccs2)C[C@@]2(C(=O)OC)CCCCC=C12 | -1.3% | 17%
CCOc1ccc(-n2c(=O)c3c(C)c(C)sc3n(Cc3c(F)cccc3Cl)c2=O)cc1 | 0.3% | 2.2%
Cc1ccc(CCNC(=O)c2sc3ncccc3c2-n2c(C)ccc2C)cc1 | -27% | u
CCn1c(=O)c2sccc2n2c(CCC(=O)Nc3ccc(C(C)C)cc3)nnc12 | -1.1% | 2.7%
COc1ccc(-c2noc(C3CC(=O)N(c4cc(C)cc(C)c4)C3)n2)cc1 (stereo not given) | -0.9% | 1.4%
CCOC(=O)c1cc(OC(=O)c2cccc(C)c2)n(-c2ccccc2)n1 | -5.7% | 0.3%
Cc1ccc(C)c(NC(=O)c2nnn(Cc3ccc(F)cc3Cl)c2N)c1 | -4.4% | 1.9%
Cc1cccc(NC(=O)C(=O)NCCc2csc(-c3ccc(F)cc3)n2)c1C | -1.5% | 0.8%
COc1ccc(N2CC(NC(=O)c3cc4ccccc4o3)CC2=O)cc1 (stereo not given) | 1.3% | 0.4%
CNS(=O)(=O)c1cn(CC(=O)N2CCN(c3ccc(C)cc3C)CC2)cc1S(=O)(=O)NC | 1.5% | 3.9%
O=C1CC(c2ccccc2)Cc2[nH]c(=O)c(C(=O)Nc3ccc(OC(F)(F)F)cc3)cc21 (stereo not given) | -0.6% | 0.5%
CCCC1=Nc2cc(C(=O)NCCOC)ccc2Sc2ccccc21 | -0.1% | 11%
Cc1c2cnn(CC(=O)N3CCN(c4ccc(F)cc4)CC3)c(=O)c2c(C)n1Cc1ccc(F)cc1 | -1.9% | -0.4%
CCc1c(C)sc2c1CCN(Cc1ccccc1C#N)C2c1ccccc1 (stereo not given) | -5.0% | -0.2%
CCCCC[C@@H](C)N1C[C@@H](COCc2ccccc2)Oc2cc(N3CCC[C@@H]3COC)ccc2S1(=O)=O | u | -0.7%
Cc1oc2c(c(C)cc3oc(=O)c(CC(=O)NCCc4ccccc4)c(C)c32)c1C | -26% | -0.7%
O=S(=O)(c1ccc(-c2cnc(C3CC3)o2)cc1)N1CCN(c2ccccc2F)CC1 | 28µM* | 9.5%
COc1ccc(CNC(=O)CCc2nc(-c3ccc(OC)cc3)no2)cc1 | 1.2% | 0.0%
COc1ccc(OC)c(CNC(=O)CCCn2c(=O)c3cccn3c3cccnc32)c1 | -7.9% | 0.3%
CCC(=O)Oc1c(Sc2ccc(Cl)cc2)c(C)nn1-c1ccccc1 | -4.0% | 1.7%
Cc1cccc(N2CCN(S(=O)(=O)c3ccc(F)c(C(=O)Nc4cccc(Cl)c4C)c3)CC2C)c1 (stereo not given) | -3.5% | -0.5%
Cc1ccc(-c2cc(C(=O)N3CCN(S(=O)(=O)c4ccc(Br)cc4)CC3)[nH]n2)c(C)c1 | 0.6% | 0.7%
O=c1[nH]c(SCc2cccc(Cl)c2)nc2c1CCC2 | 0.7% | 2.6%
COc1ccc(-c2noc(-c3nnn(-c4ccc(C(C)C)cc4)c3C)n2)cc1OC | -23% | 0.1%
COc1ccc(-c2noc(-c3ccc(NCc4ccccc4OC)c([N+](=O)[O-])c3)n2)cc1 | 0.3% | 1.6%
CCOC(=O)c1ccc(NC(=O)c2cnc3c(-c4ccc(F)cc4)c(C)nn3c2C)cc1 | -3.8% | 1.4%
Cc1ccc2cc(F)ccc2n1 | -0.1% | -0.2%
CCOc1ccccc1CN1CCc2nc(Nc3ccccc3)ncc2C1 | -2.3% | -0.3%
CCCN1CNc2c(c(=O)[nH]c(=S)n2CCc2c(Cl)cccc2Cl)C1 | -0.6% | -0.9%
CCOC(=O)c1ccc(N2C(=O)Cc3cc(OCC)c(OCC)cc3C2c2ccccc2)cc1 (stereo not given) | -1.0% | 1.8%

Later entries:
structure | ClpP mod | PINK1 expr mod
COc1ccc(CNC(=O)CN2C(=O)COc3ccc(S(=O)(=O)Nc4ccccc4)cc32)cc1 | -2.3% | 0.8%
CCCc1ccc(-c2ccc(C(=O)Oc3ccc(OCC)cc3)cc2)nc1 | -5.0% | 1.4%
CCOc1ccc2nc(N3CCN(C(=O)c4ccc(S(=O)(=O)CC)cc4)CC3)sc2c1 | -15% | 2.1%
COc1ccccc1N1CCN(c2ccc(NC(=O)c3ccc(C)cc3)cc2C(=O)O)CC1 | 0.7% | 1.0%
O=C(Cc1ccccc1)Nc1sc2c(c1C(=O)Nc1ccc(Cl)cc1)CCCC2 | -16% | 2.4%
O=c1c(NCc2cccs2)nccn1-c1ccc(F)cc1 | -4.3% | 1.5%
COc1ccc(OCCn2c(CCNC(=O)C3CCCCC3)nc3ccccc32)cc1 | -0.9% | 0.5%
CCN(CC)S(=O)(=O)c1ccc(NC(=O)Cn2ncc3c([nH]c4ccccc43)c2=O)cc1 | -22% | 1.1%
COc1ccc(-c2nc(C)c(CCNC(=O)c3ccccc3Br)s2)cc1OC | 3.8% | 0.9%
O=C(NCc1cccc(Br)c1)c1ccc(NC(=O)N2CCCCc3ccccc32)cc1 | -3.4% | 0.4%
Cc1ccc(-c2nc(C)c(CCNC(=O)C(=O)Nc3ccc(C)c(Cl)c3)s2)cc1 | -1.1% | -1.7%
Cc1cc(C)cc(NC(=O)CCn2cnc3ccccc3c2=O)c1 | 1.0% | 5.5%
CC1CCN(C(=O)Cn2cc(SCC(=O)Nc3ccccc3C(F)(F)F)c3ccccc32)CC1 | 0.6% | 0.1%
Cc1cccc(C)c1-n1nnnc1-c1nc2ccccc2[nH]c1=O | -7.7% | 1.3%
Fc1ccc(Nc2nc(SCc3cccc(F)c3)nc3ccccc23)cc1 | u | u
Cn1c(=O)n(C)c2cc(N3CCCCC3)c(NC(=O)c3ccc(Cl)cc3)cc21 | -5.2% | 0.8%
Cc1cc(C)cc(NC(c2nnc(-c3cccc(F)c3)o2)c2ccc(F)cc2Cl)c1 (stereo not given) | -7.5% | 0.9%
O=C(Nc1ccccc1C(=O)OCc1cc(=O)n2ccsc2n1)c1ccccc1Cl | 2.6% | -1.0%
CCOc1ccc(-c2nnc(SCC(=O)c3ccccc3)n2-c2ccccc2)cc1 | -1.1% | 4.5%
CCCN(CCC)C(=O)Cn1c(=O)n(-c2cccc(OC)c2)c(=O)c2c(C)c(C(=O)N(C)C)sc21 | -1.2% | 0.6%
CCOC(=O)c1ccc(NC(=O)Cn2c(=O)cc(C)c3c(C)nn(-c4cccc(F)c4)c32)cc1 | 0.7% | 2.3%
COc1cc(Cl)c(C)cc1NC(=O)CCn1cnc2onc(-c3ccc(F)cc3)c2c1=O | -0.6% | -0.4%
N#Cc1nc(N2CCCCC2)nc(N2CCCCC2)n1 | -3.5% | 0.5%
COC(=O)c1ccc2c(c1)N(CC(=O)Nc1ccc(C)c(C)c1)C(=O)c1ccccc1S2 | 1.4% | 2.2%
Cc1ccc(C)c(NC(=O)Cn2nnc(C(=O)NCCc3ccccc3)c2N)c1 | 0.9% | u
COc1ccc(N(CC(=O)Nc2cccc(Cl)c2)S(=O)(=O)c2c(C)[nH]c(=O)[nH]c2=O)cc1 | -0.6% | 1.1%
Cc1ccc(-c2nc(C(=O)Nc3cccc(C#N)c3)c3n2CCCCC3)cc1 | -0.8% | 0.6%
COc1ccc(NC(=O)CSc2nc3c(c(=O)[nH]2)CCC3)cc1 | 0.7% | -0.4%
Cc1c(-c2ccc(Cl)cc2)c(=O)oc2c(CN3CCN(C)CC3)c(O)ccc12 | 4.4% | -0.3%
O=C(CCC1N=C2c3ccccc3N=C(SCc3ccccc3Cl)N2C1=O)N1CCN(c2ccccc2)CC1 (stereo not given) | 11% | -1.0%

Later entries
structure | ClpP mod | PINK1 expr mod
CCc1nc(-c2cc(S(=O)(=O)N3CCN(c4ccc(F)cc4)CC3)ccc2OC)no1 | u | 1.0%
COC(=O)c1ccc(OCC2c3cc(OC)c(OC)cc3CCN2C(=O)c2ccccc2C)cc1 (stereo not given) | 0.1% | -4.7%
Cc1cccc(C)c1NC(=O)C1c2ccccc2OCC(=O)N1Cc1cccnc1 (stereo not given) | -0.8% | -0.1%
Cc1ccc(CCNC(=O)c2ccc3c(c2)c(C)c(C)n3Cc2ccccc2)cc1 | 22µM* | -0.1%
COc1ccc(C(=O)NCC(c2ccc3c(c2)OCO3)N2CCOCC2)cc1OC (stereo not given) | 1.5% | -2.0%
CCNc1nc(N)nc(Oc2ccc(OCC(=O)OC)nn2)n1 | -1.0% | -0.3%
Cc1nn(-c2nc(-c3ccc(F)cc3)cc(C(F)(F)F)n2)c(C)c1Cl | -8.4% | -0.1%
CCOc1ccc(C2c3c(oc4ccccc4c3=O)C(=O)N2Cc2ccc3c(c2)OCO3)cc1 (stereo not given) | 0.2% | -0.8%
Cc1ccc(C(C)C)c(OCC(=O)Nc2ccc(O)c(-c3nc4cc(Cl)ccc4o3)c2)c1 | 0.0% | -0.6%
Cc1ccc(-n2c3c(c(=O)[nH]c2=O)C(NC(=O)c2ccccc2C)(C(F)(F)F)C(=O)N3)cc1 (stereo not given) | -0.3% | 0.2%
O=C(c1ccc2c(=O)n(CC3CCCO3)c(=S)[nH]c2c1)N1CCN(C(=O)c2ccco2)CC1 (stereo not given) | 4.0% | -0.5%
CCCCC(=O)Nc1ccccc1C(=O)OCc1cc(=O)n2nc(C3CCCCC3)sc2n1 | -22% | -1.1%
CC(=O)c1cc(-c2ccc(F)cc2)n(CCC(=O)NC2CCCCC2)c1C | -0.2% | -1.4%
CCOCCc1nnc(NC(=O)C(=O)c2cc(C)n(-c3ccc(C)cc3C)c2C)s1 | 0.2% | -0.8%
COCCCNC(=O)CCCn1c(SCC(=O)c2ccc(F)cc2)nc2c(sc3ccccc32)c1=O | -11% | 0.0%
Cc1cc(C)cc(OCC(=O)N(Cc2cccs2)c2ccc(Cl)cc2)c1 | -1.1% | 1.4%
CCN(C(=O)CSc1nc2ccccc2nc1Cc1ccc(F)cc1)c1cccc(C)c1 | 1.9% | 0.5%
O=C(c1cnn(-c2ccc(F)cc2)c1-n1cccc1)N1CCN(c2cccc(Cl)c2)CC1 | -0.6% | 1.9%
c1ccc2c(C(c3c[nH]c4ccccc34)c3c[nH]c4ccccc34)c[nH]c2c1 | -3.5% | 1.7%
CCn1c(CN2CCCCC2)nc2cc(NC(=O)c3cc(OC)c(OC)c(OC)c3)ccc21 | -7.2% | 6.1%
COc1ccc(N2CCN(C(=O)CN3C(=O)CSc4c3c(C)nn4-c3ccccc3)CC2)cc1 | -12% | 0.5%
CN(CC(=O)Nc1ccc(Br)cc1)S(=O)(=O)c1cccc2nsnc12 | -0.4% | 0.5%
O=C(CS(=O)(=O)c1cccc2nsnc12)N1CCN(c2cccc(Cl)c2)CC1 | -2.3% | -2.0%
O=C(Nc1nc(-c2ccccc2)ns1)c1ccc(Cl)cc1 | -1.9% | 3.3%
CCOC(=O)c1ccccc1NC(=O)c1sc2nc3n(c(=O)c2c1C)CCCCC3 | -4.6% | 0.8%
COC(=O)c1sccc1S(=O)(=O)N(CC(=O)NCc1ccccc1)c1ccc(C)cc1 | -0.7% | 2.7%
CCOc1ccc(NC(=O)CC2C(=O)N(c3ccccc3)C(=O)N2C2CCCC2)cc1 (stereo not given) | 1.8% | -0.1%
COc1cccc(CNCc2c(C(=O)O)c(C)n(Cc3ccc(F)cc3Cl)c2C)c1OC | -0.3% | 1.2%
Cc1ccc(CNC(=O)c2sc3nc4n(c(=O)c3c2C)CCCCC4)cc1 | 0.5% | 1.0%
O=C(Nc1ccc2nc(SCC(=O)N3CCc4ccccc43)sc2c1)c1ccccc1 | 8.9µM* | 0.4%

Brought forward from above: 3 entries; new compounds follow.
structure | ClpP mod | PINK1 expr mod
COc1cccc(CNCc2c(C(=O)O)c(C)n(Cc3ccc(F)cc3Cl)c2C)c1OC | -0.3% | 1.2%
Cc1ccc(CNC(=O)c2sc3nc4n(c(=O)c3c2C)CCCCC4)cc1 | 0.5% | 1.0%
O=C(Nc1ccc2nc(SCC(=O)N3CCc4ccccc43)sc2c1)c1ccccc1 | 8.9µM* | 0.4%
CC(C)(C)C(=O)OC1=CN(Cc2ccccc2)S(=O)(=O)c2ccccc21 | -0.5% | 1.2%
COc1ccc(N2CCN(C(=O)c3oc4ccccc4c3NC(=O)c3ccccc3OC)CC2)cc1 | -12% | -1.9%
COc1ccccc1-c1nn2c(-c3cc(C)[nH]n3)nnc2s1 | -4.4% | -0.4%
COc1ccc(CN2C(=O)CCC2(C)c2nnnn2-c2c(C)cccc2C)cc1 (stereo not given) | 0.8% | -0.1%
Cc1ccc(CN2CCC(CNC(=O)c3cnn(-c4ccc(C)cc4)c3C3CCN(C(=O)OC(C)(C)C)CC3)CC2)cc1 | -0.7% | 0.0%
COC(=O)c1ccc(NC(=O)CSc2nc3c(c(=O)n(C)c(=O)n3C)n2Cc2ccccc2)cc1 | -0.4% | -1.3%
